Source: PubChem BioAssay (National Center for Advancing Translational Sciences (NCATS))
GLA inh pH 4.5 – alpha-galactosidase A (human) inhibition, pH 4.5; AID 1467; P06280; purified enzyme, 4-MU-alpha-Gal fluorescence, pH 4.5; 230,000 tested, under 10 active; activity change, negative = inhibition, % at 105 µM; inconclusive = small, poorly fitted or top-dose-only inhibition, or a rising curve; inactive = flat fitted curve, though single readings scatter; no compound was filed as active;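 note: 0% = full activity with enzyme and -100% = basal without enzyme; dose as in the result columns while the protocol names 77 µM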
Target sequence (P06280 whole entry, looked up): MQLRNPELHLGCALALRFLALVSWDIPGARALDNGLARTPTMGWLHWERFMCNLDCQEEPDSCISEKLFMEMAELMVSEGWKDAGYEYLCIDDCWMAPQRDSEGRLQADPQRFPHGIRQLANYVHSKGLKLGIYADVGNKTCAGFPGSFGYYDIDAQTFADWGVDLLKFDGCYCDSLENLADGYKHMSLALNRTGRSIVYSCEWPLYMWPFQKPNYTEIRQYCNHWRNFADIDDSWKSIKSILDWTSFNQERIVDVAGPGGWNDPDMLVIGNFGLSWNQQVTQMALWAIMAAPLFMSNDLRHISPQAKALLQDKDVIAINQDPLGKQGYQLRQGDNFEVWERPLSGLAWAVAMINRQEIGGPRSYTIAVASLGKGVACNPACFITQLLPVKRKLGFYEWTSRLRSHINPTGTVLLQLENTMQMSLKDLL
An asterisk follows results filed as active; & = joins results of further samples. Not all compounds are listed; the hit share may differ from the screen's.

A first look:
For C[C@H]1CC[C@@H]2[C@@H](C)[C@H]3[C@H](C[C@H]4[C@@H]5CC=C6C[C@@H](O[C@]7(O[C@H]8O[C@@H](C)[C@@H](O)[C@@H](O)[C@@H]8O)C[C@@H](O[C@@H]8O[C@H](CO)[C@@H](O)[C@H](O)[C@@H]8O)[C@@H](O)[C@H](CO)O7)CC[C@]6(C)[C@H]5CC[C@@]34C)N2C1 the results were GLA inh pH 4.5 5.
Nc1ccc(-c2nc3ccc(-c4nc5ccc(N)cc5[nH]4)cc3[nH]2)cc1 was read as GLA inh pH 4.5 -3&-6.
Cc1ccc(CNC(=O)[C@@H]2C[C@H]2[C@@H](NP(=O)(c2ccccc2)c2ccccc2)c2ccccc2)o1 was read as GLA inh pH 4.5 3.
For O=Cc1ccsc1B(O)O the results were GLA inh pH 4.5 -5.
Screening NCCC[C@@H](CC(=O)N[C@@H]1CCNC[C@H]1C(=O)N[C@H](CC(=O)N[C@@H](CCC(=O)O)CC(=O)O)Cc1c[nH]c2ccccc12)NC(=O)C[C@H](Cc1c[nH]c2ccccc12)NC(=O)[C@@H]1CCCC[C@H]1N returned GLA inh pH 4.5 -3.
`CC(O)[C@@H](O)[C@H]1CNc2nc(N)[nH]c(=O)c2N1` (stereo partly specified) gave GLA inh pH 4.5 inconclusive.
Screening CS(=O)(=O)Nc1cccc(-c2nc(NCc3cccnc3)c3ccccc3n2)c1 returned GLA inh pH 4.5 5.

The whole of this part, from the first entry:
For C[C@H]1CC[C@@H]2[C@@H](C)[C@H]3[C@H](C[C@H]4[C@@H]5CC=C6C[C@@H](O[C@]7(O[C@H]8O[C@@H](C)[C@@H](O)[C@@H](O)[C@@H]8O)C[C@@H](O[C@@H]8O[C@H](CO)[C@@H](O)[C@H](O)[C@@H]8O)[C@@H](O)[C@H](CO)O7)CC[C@]6(C)[C@H]5CC[C@@]34C)N2C1 the results were GLA inh pH 4.5 5.
Nc1ccc(-c2nc3ccc(-c4nc5ccc(N)cc5[nH]4)cc3[nH]2)cc1 was read as GLA inh pH 4.5 -3&-6.
Cc1ccc(CNC(=O)[C@@H]2C[C@H]2[C@@H](NP(=O)(c2ccccc2)c2ccccc2)c2ccccc2)o1 was read as GLA inh pH 4.5 3.
For O=Cc1ccsc1B(O)O the results were GLA inh pH 4.5 -5.
Screening NCCC[C@@H](CC(=O)N[C@@H]1CCNC[C@H]1C(=O)N[C@H](CC(=O)N[C@@H](CCC(=O)O)CC(=O)O)Cc1c[nH]c2ccccc12)NC(=O)C[C@H](Cc1c[nH]c2ccccc12)NC(=O)[C@@H]1CCCC[C@H]1N returned GLA inh pH 4.5 -3.
`CC(O)[C@@H](O)[C@H]1CNc2nc(N)[nH]c(=O)c2N1` (stereo partly specified) gave GLA inh pH 4.5 inconclusive.
Screening CS(=O)(=O)Nc1cccc(-c2nc(NCc3cccnc3)c3ccccc3n2)c1 returned GLA inh pH 4.5 5.
`O=C1NS(=O)(=O)c2ccccc21` gave GLA inh pH 4.5 8.
CCCCC1=CC2=C(OC(C)=O)C(=O)C(C)(OC(=O)CCC(=O)OC)C(=O)C2=CO1 (stereo unspecified) was read as GLA inh pH 4.5 -9.
Screening COc1ccc(-c2nc3c(c4c2C[C@H](c2ccccc2)OC4)CN(C(=O)c2cc(I)ccc2F)CC3)c(C)c1 returned GLA inh pH 4.5 6.
Screening C[C@](O)(C(=O)Nc1ccc(S(=O)(=O)c2ccccc2)cc1)C(F)(F)F returned GLA inh pH 4.5 -4.
For COC(=O)c1ccc(C(NC(=O)OCc2ccccc2)/C(C)=C/[C@@H](C)C(=O)NCc2nn(-c3ccccc3)nc2C)cc1 (stereo partly specified) the results were GLA inh pH 4.5 1.
For OCCNCCCOc1cccc(Cl)c1Cl the results were GLA inh pH 4.5 6.
COc1ccc([C@H]2c3cc(OC)c(OC)cc3C[C@@H](C)[C@@H]2C)cc1OC was read as GLA inh pH 4.5 -2.
Screening CCCCCCCCCCCC(CC1OC(=O)C1CCCCCC)OC(=O)C(CC(C)C)NC=O (stereo unspecified) returned GLA inh pH 4.5 -2.
For CC1(C)OC2C(CO)OC(n3cnc4c(=O)[nH]cnc43)C2O1 (stereo unspecified) the results were GLA inh pH 4.5 0.
Screening C=CC1=C2C=C(C3CC3)N(Cc3ccco3)C=C2C(=O)C(C)(OC(=O)c2ccco2)C1=O (stereo unspecified) returned GLA inh pH 4.5 8.
c1cncc(-c2ccc3ncnc(N4CCNCC4)c3c2)c1 was read as GLA inh pH 4.5 0.
Screening NCCC(=O)N[C@@H](Cc1cnc[nH]1)C(=O)O returned GLA inh pH 4.5 1.
Screening Cn1c(N)c(C(=O)COC(=O)c2cc(-c3ccccc3)nc3ccccc23)c(=O)n(C)c1=O returned GLA inh pH 4.5 3.
CCCCCC1C(=O)CCC1CC(=O)O (stereo unspecified) was read as GLA inh pH 4.5 8.
For Nc1ccc2c3c(cccc13)C(=O)NC2=O the results were GLA inh pH 4.5 -7.
Screening OCC1OC(Oc2cccc3cccnc23)C(O)C(O)C1O (stereo unspecified) returned GLA inh pH 4.5 -4.
`Cc1c2oc3c(C)ccc(C(=O)N[C@@H]4C(=O)N[C@H](C(C)C)C(=O)N5CCC[C@H]5C(=O)N(C)CC(=O)N(C)[C@@H](C(C)C)C(=O)O[C@@H]4C)c3nc-2c(C(=O)N[C@@H]2C(=O)N[C@H](C(C)C)C(=O)N3CCC[C@H]3C(=O)N(C)CC(=O)N(C)[C@@H](C(C)C)C(=O)O[C@@H]2C)c(N)c1=O` gave GLA inh pH 4.5 -10.
`Cc1cc(OI)c(C(C)C)cc1-c1cc(C(C)C)c(OI)cc1C` gave GLA inh pH 4.5 -4.
COc1ccccc1CNc1ncnc2ccc(-c3cccnc3)cc12 was read as GLA inh pH 4.5 0.
Screening C=CCC(Nc1ccc(OC)cc1)C(=O)OCC (stereo unspecified) returned GLA inh pH 4.5 0.
`C=CC1=C(C(=O)O)N2C(=O)[C@@H](NC(=O)/C(=N\OCC(=O)O)c3csc(N)n3)[C@@H]2SC1` gave GLA inh pH 4.5 9.
`CC(C)C[C@H]1C(=O)N2CCCC2[C@]2(O)O[C@](NC(=O)[C@@H]3C=C4c5cccc6[nH]c(Br)c(c56)C[C@H]4N(C)C3)(C(C)C)C(=O)N12` (stereo partly specified) gave GLA inh pH 4.5 -14.
Screening CO/N=C(\C(=O)N[C@@H]1C(=O)N2C(C(=O)O)=C(COC(N)=O)CS[C@@H]12)c1ccco1 returned GLA inh pH 4.5 3.
CCCn1c(-c2ccc(F)cc2)nc2c(N3CCN(Cc4nc(OC)cc(OC)n4)CC3)nc(C)nc21 was read as GLA inh pH 4.5 -6.
`OC[C@H]1O[C@H](n2cnc3c(NC4CCCC4)nc(Cl)nc32)[C@@H](O)[C@@H]1O` gave GLA inh pH 4.5 2.
Screening CCCn1c(C)nc2c(NCCCN(CCO)CCO)nc(C)nc21 returned GLA inh pH 4.5 -12.
`N[C@@H](C(=O)O)c1ccc(C(=O)O)cc1` gave GLA inh pH 4.5 1&4.
For COc1cccc([C@@H]2Oc3ccc(OC)cc3C[C@H]2OC(=O)N[C@H](C)C2CCCCC2)c1 the results were GLA inh pH 4.5 -3.
`COC(=O)[C@H](Cc1ccccc1)NC(=O)[C@H]1C[C@@H]1[C@H](NC(=O)OCc1ccccc1)c1ccccc1` gave GLA inh pH 4.5 6.
`COC(=O)[C@@H](NC(=O)N1CCc2nc(-c3ccc(OC)cc3C)c3c(c2C1)CO[C@@H](c1ccccc1)C3)C(C)C` gave GLA inh pH 4.5 -4.
`COc1ccc2c(c1)O[C@@H](c1ccc3c(c1)OCO3)[C@H](OC(=O)N[C@H]1CCCc3ccccc31)C2=O` gave GLA inh pH 4.5 -3.
Screening Cc1ccccc1-c1cncnc1NCCN1CCOCC1 returned GLA inh pH 4.5 3.
`O[C@H](CN1CCN(c2cccc(Cl)c2)CC1)C(c1ccccc1)c1ccccc1` gave GLA inh pH 4.5 -18.
For CCC1=C2CC[C@H]3C(=O)N(CC(=O)OC)C(=O)[C@H]3[C@H]2[C@@]2(C)C(=O)N(CC3CC3)C(=O)N2C1=O the results were GLA inh pH 4.5 -6.
Screening CCCCNc1nc(C)nc2c1nc(-c1ccccc1)n2CCN1CCCC1 returned GLA inh pH 4.5 -7.
Screening C1CCN2CC3CC(CN4CCCC[C@@H]34)C2C1 (stereo partly specified) returned GLA inh pH 4.5 -5.
Screening COC(=O)[C@@]1(Cc2ccc(F)cc2)[C@H]2c3cc(C(=O)N(C)C)n(CCc4c[nH]c5ccc(OC)cc45)c3C[C@H]2CN1C(=O)c1ccccc1 returned GLA inh pH 4.5 -3.
For C=C1C([C@@]2(C)C(OC(C)=O)CC(=O)O[C@@](C)(COC(C)=O)C2CC(=O)OC)C(OC=O)C(OC(=O)C(O)C(C)CC)[C@]2(C)C(c3ccoc3)CC(=O)C12O (stereo partly specified) the results were GLA inh pH 4.5 -8.
Screening CC(=O)O[C@]1(C(C)=O)CC[C@@H]2[C@@H]3C=C(C)C4=CC(=O)CC[C@@]4(C)[C@H]3CC[C@]21C returned GLA inh pH 4.5 3.
`CN(C)c1ccc(-c2cncnc2NCc2ccccc2)cc1` gave GLA inh pH 4.5 -10.
O=C1C=CC2=C3c4cc(O)c(O)cc4C[C@@]3(O)COC2=C1 was read as GLA inh pH 4.5 2.
For COc1cc2c3cc1Oc1cc(ccc1O)CC1c4c(cc(OC)c(O)c4Oc4ccc(cc4)CC3N(C)CC2)CC[N+]1(C)C (stereo unspecified) the results were GLA inh pH 4.5 6.
`CC(=O)c1ccc(NC(=O)OCCN2CCN(Cc3ccccc3)CCC2=O)cc1` gave GLA inh pH 4.5 -16.
Screening COC(=O)CC1C(C)(C)C(OC(C)=O)C2CC3=C4CC(=O)OC(c5ccoc5)[C@]4(C)CCC3[C@@]1(C)C2=O (stereo partly specified) returned GLA inh pH 4.5 0.
CCC(C)C(=O)OC1CC(C)C=C2C=CC(C)C(CCC3CC(O)CC(=O)O3)C21 (stereo unspecified) was read as GLA inh pH 4.5 2.
For FC(F)(F)c1ccc(C2[C@H]3CN(CC4CCCCC4)[C@H](c4ccccc4)C34CC2(c2ccccc2)C4)cc1 (stereo partly specified) the results were GLA inh pH 4.5 0.
Screening CC12CCC3C(CC3(C)C)C(C)(CCC1=O)O2 (stereo unspecified) returned GLA inh pH 4.5 -4.
CCCCCCCC1=Cc2ccccc2C(C(C(=O)OC)C(=O)OC)N1C(=O)OC (stereo unspecified) was read as GLA inh pH 4.5 2.
`CCCCc1nc2c(c3c1C[C@H](C)OC3)CN(S(=O)(=O)c1ccccc1C(=O)OC)CC2` gave GLA inh pH 4.5 13.
Screening COc1ccc(/C=C/C(=O)OCCC(C)C)cc1 returned GLA inh pH 4.5 -5.
Screening CCC/C=C(\CCC)C(NP(=O)(c1ccccc1)c1ccccc1)c1ccc(C(F)(F)F)cc1 (stereo unspecified) returned GLA inh pH 4.5 inconclusive.
`C[C@H]1Cc2c(COc3ccccc3)nc3c(c2CO1)CN(C(=O)C1CC1)CC3` gave GLA inh pH 4.5 4.
C[C@@H]1O[C@H](O[C@@H]2\C=C/C=C\C=C/C=C\C[C@H](C)OC(=O)/C=C\[C@H]3O[C@@H]3C[C@H](O)C[C@]3(O)C[C@@H](O)[C@@H](C(=O)O)[C@H](C2)O3)[C@@H](O)[C@H](N)[C@@H]1O (stereo in doubt) was read as GLA inh pH 4.5 3.
`O=c1cc(-c2cccc(O)c2)oc2c(O)c(O)ccc12` gave GLA inh pH 4.5 1.
Screening COc1ccc(CCNC[C@@H](O)c2ccc(O)cc2)cc1OC returned GLA inh pH 4.5 -21.
`CC(=O)OC1C=C[C@]2(C)C(CC(OC(C)=O)[C@@]3(C)C4=CC(=O)OC(c5ccoc5)[C@]4(C)CCC23)C1(C)C` (stereo partly specified) gave GLA inh pH 4.5 -5.
For C=CCOC(=O)N[C@@H](Cc1ccccc1)/C(C(=O)OC)=C(\C)NCc1ccccc1 the results were GLA inh pH 4.5 0.
CN1[C@H](CC(=O)c2ccccc2)CCC[C@H]1C[C@@H](O)c1ccccc1 was read as GLA inh pH 4.5 3.
`CC#CCN1c2ccccc2[C@]23C[C@@H](C(=O)OC)N(S(=O)(=O)c4cccs4)C2=NC(C(=O)OC)=C(C(=O)OC)[C@H]13` gave GLA inh pH 4.5 -11.
O=C(OC[C@@H](O)CO)c1ccccc1Nc1ccnc2cc(Cl)ccc12 was read as GLA inh pH 4.5 -8.
C[N+](C)(C)CCOP(=O)([O-])OP(=O)(O)OCC1OC(n2ccc(N)nc2=O)C(O)C1O (stereo unspecified) was read as GLA inh pH 4.5 1.
COC(=O)[C@@H]1C[C@H]1[C@@H](NS(=O)(=O)c1ccc(-c2ccccc2)cc1)c1ccccc1 was read as GLA inh pH 4.5 -11.
For CC(C)=C1C(=O)C(c2ccccc2)=C2CN3C(=O)N(CCc4ccccc4)C(=O)[C@]3(Cc3ccc(C(F)(F)F)cc3)[C@H]21 the results were GLA inh pH 4.5 4.
C[C@@H]1Nc2ccc(Cl)cc2S(=O)(=O)N1 was read as GLA inh pH 4.5 0.
`CO[C@@H](CCO)C[C@H]1O[C@H](C(=O)OC(C)C)CC[C@@H]1C` gave GLA inh pH 4.5 -3.
Screening CC(=O)N[C@H](c1ccccc1)[C@@]1(C)C[C@@H]1[C@@H](C)C(=O)Nc1ccc2ccccc2c1 returned GLA inh pH 4.5 3.
`CCOC(=O)C1=CC(OC(CC)CC)C(NC(C)=O)C(N)C1` (stereo unspecified) gave GLA inh pH 4.5 4.
CN(C)Cc1ccccc1-c1nccc(NC2CC2)n1 was read as GLA inh pH 4.5 3.
For CCCCCCCCCCCCC/C=C/[C@@H](O)[C@H](CO)NCCCCCCCC the results were GLA inh pH 4.5 -3.
For COc1ccccc1N1CCN(CCCCN2C(=O)CCC2=O)CC1 the results were GLA inh pH 4.5 -12.
Screening COC(=O)[C@@]1(Cc2ccc(OC)cc2)[C@H]2c3cc(C(=O)N4CCCC4)n(Cc4ccc(C(F)(F)F)nc4)c3C[C@H]2CN1C(=O)c1ccccc1 returned GLA inh pH 4.5 -13.

Looked up one by one from above:
For OCCNCCCOc1cccc(Cl)c1Cl the results were GLA inh pH 4.5 6.
For CCC1=C2CC[C@H]3C(=O)N(CC(=O)OC)C(=O)[C@H]3[C@H]2[C@@]2(C)C(=O)N(CC3CC3)C(=O)N2C1=O the results were GLA inh pH 4.5 -6.
